Screening data as filed in PubChem BioAssay.
Ran FRET: RanGTP/importin-beta interaction disruptors – biochemical, CFP-Ran/YFP-importin-beta FRET, RCC1, cell-free, primary screen (AID 434961); 7,700 tested, 0.2% active; inhibition, %; CFP-Ran/YFP-importin-beta FRET, cell-free; active compounds read high;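 active means more than half of the replicate wells above 15% inhibition; inconclusive means exactly half above it; inactive means fewer than half above it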;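 further: 0% = DMSO wells and 100% inhibition = RanGDP control wells on each plate; stock of unstated strength diluted about 400-fold; mean of two wells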
* hit, by the source's call; ? = inconclusive.

mol	Ran FRET
C[C@@H]1CN([C@H](C)CO)C(=O)c2cc(NC(=O)Nc3ccc(F)cc3)ccc2O[C@@H](C)CCCCO[C@@H]1CN(C)Cc1ccc(C(=O)O)cc1	2.7
C[C@@H]1CN([C@@H](C)CO)C(=O)c2cc(NC(=O)Nc3ccccc3)ccc2O[C@@H](C)CCCCO[C@H]1CN(C)Cc1ccncc1	0.1
CC(C)NC(=O)Nc1ccc2c(c1)C(=O)N([C@@H](C)CO)C[C@@H](C)[C@H](CN(C)C)O2	?
Cc1noc(C)c1NC(=O)N(C)C[C@H]1Oc2c(NC(=O)c3cnccn3)cccc2C(=O)N([C@@H](C)CO)C[C@H]1C	-11
C[C@H]1CCCCO[C@H](CN(C)Cc2ccc(C(=O)O)cc2)[C@@H](C)CN([C@@H](C)CO)C(=O)c2cc(NC(=O)c3ccncc3)ccc2O1	-3.3
C[C@H](CO)N1C[C@H](C)[C@H](CN(C)C(=O)Nc2ccc(F)cc2)Oc2ccc(NC(=O)NC3CCCCC3)cc2CC1=O	4.7
C[C@H]1CCCCO[C@@H](CN(C)C(=O)Nc2ccccc2)[C@@H](C)CN([C@@H](C)CO)C(=O)c2cc(NS(C)(=O)=O)ccc2O1	2.3
C[C@@H]1CN([C@@H](C)CO)C(=O)c2cc(NS(C)(=O)=O)ccc2O[C@@H](C)CCCCO[C@@H]1CN(C)S(=O)(=O)c1cccs1	-4.1
COc1ccc(CN(C)C[C@@H]2Oc3c(NC(=O)c4ccncc4)cccc3C(=O)N([C@@H](C)CO)C[C@H]2C)cc1	-0.4
Cc1noc(C)c1NC(=O)N(C)C[C@@H]1Oc2ccc(NC(=O)Nc3ccc4c(c3)OCO4)cc2CC(=O)N([C@H](C)CO)C[C@H]1C	-0.5
C[C@H]1CN([C@@H](C)CO)C(=O)c2cccc(NC(=O)NC3CCCCC3)c2O[C@@H]1CN(C)C(=O)Nc1ccc(F)cc1	-9.1
Cc1noc(C)c1S(=O)(=O)Nc1ccc2c(c1)C(=O)N([C@@H](C)CO)C[C@@H](C)[C@@H](CN(C)C(=O)CCC(F)(F)F)OCCCC[C@H](C)O2	1.2
C[C@H]1CN([C@@H](C)CO)C(=O)CCCn2nncc2CO[C@@H]1CN(C)Cc1ccc(Oc2ccccc2)cc1	-3.1
Cc1noc(C)c1NC(=O)N(C)C[C@@H]1OCCCC[C@H](C)Oc2ccc(NS(=O)(=O)c3cccs3)cc2C(=O)N([C@H](C)CO)C[C@@H]1C	0.0
CC(C)NC(=O)N(C)C[C@@H]1Oc2ccc(NC(=O)CCN3CCOCC3)cc2C(=O)N([C@H](C)CO)C[C@@H]1C	3.0
C[C@@H]1CN([C@@H](C)CO)C(=O)c2cc(NC(=O)Nc3cccc4ccccc34)ccc2O[C@@H](C)CCCCO[C@@H]1CN(C)C(=O)CCCN(C)C	-0.6
C[C@@H]1CN([C@H](C)CO)C(=O)c2cccc(NS(=O)(=O)c3ccccc3)c2O[C@H]1CN(C)C(=O)NC1CCCCC1	-0.2
CC(C)NC(=O)N(C)C[C@@H]1OCCCC[C@H](C)Oc2ccc(NS(=O)(=O)c3cn(C)cn3)cc2C(=O)N([C@@H](C)CO)C[C@@H]1C	-4.5
C[C@H]1CN([C@@H](C)CO)C(=O)Cc2cc(NC(=O)C3CC3)ccc2O[C@@H]1CN(C)Cc1ccc(Cl)c(Cl)c1	1.5
CNC[C@H]1OCCCC[C@@H](C)Oc2ccc(NC(=O)Nc3cccc4ccccc34)cc2C(=O)N([C@H](C)CO)C[C@@H]1C	3.5
Cc1noc(C)c1NC(=O)Nc1ccc2c(c1)C(=O)N([C@@H](C)CO)C[C@@H](C)[C@H](CN(C)C(=O)CCCN(C)C)OCCCC[C@H](C)O2	-2.8
C[C@H](CO)N1C[C@H](C)[C@H](CN(C)C(=O)Nc2ccc(C(F)(F)F)cc2)Oc2c(NC(=O)NC3CCCCC3)cccc2C1=O	2.1
C[C@H](CO)N1C[C@H](C)[C@H](CN(C)S(=O)(=O)c2cccs2)Oc2ccc(NC(=O)C3CC3)cc2CC1=O	-1.4
Cc1noc(C)c1S(=O)(=O)Nc1ccc2c(c1)C(=O)N([C@H](C)CO)C[C@@H](C)[C@@H](CN(C)C(=O)Cc1ccccc1)OCCCC[C@@H](C)O2	-2.8
COc1ccc(CN(C)C[C@H]2Oc3ccc(NC(=O)Cn4cnnn4)cc3C(=O)N([C@H](C)CO)C[C@@H]2C)cc1	4.2

The results go on.
mol	Ran FRET
Cc1noc(C)c1S(=O)(=O)N(C)C[C@@H]1Oc2ccc(NC(=O)C3CCCCC3)cc2CC(=O)N([C@H](C)CO)C[C@H]1C	?
CC(C)NC(=O)N(C)C[C@H]1OCCCC[C@H](C)Oc2ccc(NC(=O)Nc3ccc(C(F)(F)F)cc3)cc2C(=O)N([C@H](C)CO)C[C@H]1C	-2.5
C[C@H]1CCCCO[C@H](CN(C)C)[C@@H](C)CN([C@@H](C)CO)C(=O)c2cc(NC(=O)Nc3ccccc3)ccc2O1	5.6
C[C@@H]1CCCCO[C@@H](CN(C)Cc2ccncc2)[C@@H](C)CN([C@@H](C)CO)C(=O)c2cc(NC(=O)CCCN(C)C)ccc2O1	-1.2
COc1ccc(S(=O)(=O)Nc2ccc3c(c2)C(=O)N([C@@H](C)CO)C[C@@H](C)[C@H](CN(C)S(=O)(=O)c2cccs2)O3)cc1	-2.7
C[C@@H]1CN([C@H](C)CO)C(=O)c2cc(NC(=O)Cn3cnnn3)ccc2O[C@H]1CN(C)C(=O)NC1CCCCC1	-4.8
Cc1noc(C)c1S(=O)(=O)N(C)C[C@H]1OCCCC[C@@H](C)Oc2ccc(NC(=O)CCCN(C)C)cc2C(=O)N([C@H](C)CO)C[C@@H]1C	-2.0
C[C@@H]1CN([C@@H](C)CO)C(=O)c2cc(NC(=O)Cc3ccccc3)ccc2O[C@@H](C)CCCCO[C@@H]1CN(C)S(=O)(=O)c1cccs1	2.2
C[C@H]1CCCCO[C@H](CN(C)C)[C@@H](C)CN([C@@H](C)CO)C(=O)c2cc(NC(=O)Cc3ccccc3)ccc2O1	-1.2
C[C@@H]1CN([C@H](C)CO)C(=O)c2cc(NC(=O)Nc3ccc4c(c3)OCO4)ccc2O[C@H]1CN(C)C(=O)NC1CCCCC1	-1.9
CC(C)NC(=O)N(C)C[C@@H]1OCc2cn(nn2)CCCC(=O)N([C@@H](C)CO)C[C@H]1C	2.3
C[C@@H]1CN([C@H](C)CO)C(=O)c2cc(NC(=O)Nc3ccccc3)ccc2O[C@@H](C)CCCCO[C@@H]1CN(C)S(=O)(=O)c1ccccc1	-4.6
C[C@@H]1CN([C@H](C)CO)C(=O)c2cc(N(C)C)ccc2O[C@@H](C)CCCCO[C@@H]1CN(C)C(=O)Nc1ccccc1	2.0
C[C@H](CO)N1C[C@H](C)[C@@H](CN(C)C(=O)Nc2ccc3c(c2)OCO3)Oc2ccc(NC(=O)Cc3ccccc3)cc2C1=O	0.0
C[C@@H]1CCCCO[C@H](CN(C)C(=O)Nc2ccccc2)[C@@H](C)CN([C@@H](C)CO)C(=O)c2cc(NC(=O)CCCN(C)C)ccc2O1	-3.1
CC(C)NC(=O)N(C)C[C@@H]1Oc2ccc(NC(=O)CCCN(C)C)cc2C(=O)N([C@H](C)CO)C[C@H]1C	-1.7
C[C@H](CO)N1C[C@H](C)[C@@H](CN(C)C(=O)Nc2cccc3ccccc23)Oc2ccc(NC(=O)NC3CCCCC3)cc2CC1=O	-2.7
Cc1noc(C)c1S(=O)(=O)N(C)C[C@H]1Oc2ccc(NC(=O)Cc3cn(C)c4ccccc34)cc2CC(=O)N([C@H](C)CO)C[C@@H]1C	-1.5
C[C@@H]1CN([C@H](C)CO)C(=O)c2cc(N(C)C)ccc2O[C@H]1CN(C)S(=O)(=O)c1cccs1	-1.3
C[C@@H]1CN([C@H](C)CO)C(=O)c2cc(N(C)C)ccc2O[C@@H](C)CCCCO[C@@H]1CN(C)C(=O)CCC(F)(F)F	?
C[C@H](CO)N1C[C@H](C)[C@@H](CN(C)S(=O)(=O)c2ccccc2)OCc2cn(nn2)CCCC1=O	1.5
COc1ccc(S(=O)(=O)N(C)C[C@@H]2Oc3c(NC(=O)c4cc(C)nn4C)cccc3C(=O)N([C@H](C)CO)C[C@@H]2C)cc1	?
C[C@@H]1CCCCO[C@@H](CN(C)Cc2ccc(C(=O)O)cc2)[C@@H](C)CN([C@@H](C)CO)C(=O)c2cc(NS(=O)(=O)c3ccccc3)ccc2O1	-1.5
CC(C)NC(=O)N(C)C[C@@H]1Oc2ccc(NC(=O)CCN3CCOCC3)cc2C(=O)N([C@H](C)CO)C[C@H]1C	?
C[C@@H]1CN([C@H](C)CO)C(=O)c2cc(NC(=O)Nc3ccc(F)cc3)ccc2O[C@@H]1CN(C)Cc1ccncc1	-0.1

Seven compounds drawn at random from those above, as already listed:
mol	Ran FRET
CC(C)NC(=O)N(C)C[C@@H]1Oc2ccc(NC(=O)CCN3CCOCC3)cc2C(=O)N([C@H](C)CO)C[C@H]1C	?
C[C@H](CO)N1C[C@H](C)[C@@H](CN(C)C(=O)Nc2ccc3c(c2)OCO3)Oc2ccc(NC(=O)Cc3ccccc3)cc2C1=O	0.0
C[C@@H]1CCCCO[C@@H](CN(C)Cc2ccc(C(=O)O)cc2)[C@@H](C)CN([C@@H](C)CO)C(=O)c2cc(NS(=O)(=O)c3ccccc3)ccc2O1	-1.5
Cc1noc(C)c1S(=O)(=O)N(C)C[C@H]1Oc2ccc(NC(=O)Cc3cn(C)c4ccccc34)cc2CC(=O)N([C@H](C)CO)C[C@@H]1C	-1.5
C[C@@H]1CCCCO[C@H](CN(C)C(=O)Nc2ccccc2)[C@@H](C)CN([C@@H](C)CO)C(=O)c2cc(NC(=O)CCCN(C)C)ccc2O1	-3.1
C[C@@H]1CN([C@H](C)CO)C(=O)c2cc(NC(=O)Cn3cnnn3)ccc2O[C@H]1CN(C)C(=O)NC1CCCCC1	-4.8
C[C@H](CO)N1C[C@H](C)[C@@H](CN(C)C(=O)Nc2cccc3ccccc23)Oc2ccc(NC(=O)NC3CCCCC3)cc2CC1=O	-2.7

The list goes on.
| SMILES | Ran FRET |
| --- | --- |
| CC(C)NC(=O)N(C)C[C@@H]1Oc2ccc(NC(=O)C3CC3)cc2C(=O)N([C@H](C)CO)C[C@@H]1C | -2.7 |
| C[C@@H]1CN([C@@H](C)CO)C(=O)c2cccc(NC(=O)C3CCOCC3)c2O[C@H]1CN(C)Cc1ccc(C(=O)O)cc1 | 7.2 |
| COc1ccc(S(=O)(=O)N(C)C[C@H]2Oc3c(NC(=O)NC4CCCCC4)cccc3C(=O)N([C@@H](C)CO)C[C@H]2C)cc1 | 0.4 |
| COc1ccc(S(=O)(=O)Nc2ccc3c(c2)C(=O)N([C@@H](C)CO)C[C@@H](C)[C@H](CN(C)S(=O)(=O)c2cn(C)cn2)O3)cc1 | ? |
| CC(C)NC(=O)N(C)C[C@@H]1Oc2ccc(NS(=O)(=O)c3cccs3)cc2CC(=O)N([C@@H](C)CO)C[C@@H]1C | 8.8 |
| C[C@@H]1CN([C@H](C)CO)C(=O)Cc2cc(NC(=O)Nc3ccccc3)ccc2O[C@@H]1CN(C)CC1CC1 | -6.0 |
| Cc1noc(C)c1NC(=O)N(C)C[C@@H]1Oc2ccc(NC(=O)Nc3ccc(F)cc3)cc2C(=O)N([C@H](C)CO)C[C@H]1C | -2.4 |
| CC(C)NC(=O)N(C)C[C@H]1OCCCC[C@@H](C)Oc2ccc(NC(=O)Cc3ccccc3)cc2C(=O)N([C@@H](C)CO)C[C@@H]1C | -6.4 |
| C[C@@H]1CN([C@H](C)CO)C(=O)c2cc(NS(=O)(=O)c3ccc(Cl)cc3)ccc2O[C@@H]1CN(C)C(=O)Nc1ccc2c(c1)OCO2 | 4.6 |
| CC(C)NC(=O)Nc1ccc2c(c1)C(=O)N([C@@H](C)CO)C[C@H](C)[C@H](CN(C)C(=O)Nc1ccccc1)OCCCC[C@@H](C)O2 | 1.9 |
| C[C@H](CO)N1C[C@H](C)[C@@H](CN(C)Cc2ccc(O)cc2)OCc2cn(nn2)CCCC1=O | -0.3 |
| C[C@@H]1CCCCO[C@H](CN(C)C(=O)c2ccncc2)[C@@H](C)CN([C@H](C)CO)C(=O)c2cc(N(C)C)ccc2O1 | -2.1 |
| C[C@@H]1CCCCO[C@H](CN(C)C(=O)c2ccncc2)[C@@H](C)CN([C@@H](C)CO)C(=O)c2cc(NC(=O)CCC(F)(F)F)ccc2O1 | -0.7 |
| C[C@@H]1CCCCO[C@@H](CN(C)C)[C@H](C)CN([C@H](C)CO)C(=O)c2cc(N(C)C)ccc2O1 | -3.5 |
| COc1ccc(S(=O)(=O)Nc2ccc3c(c2)C(=O)N([C@@H](C)CO)C[C@@H](C)[C@H](CN(C)Cc2ccc4c(c2)OCO4)O3)cc1 | 1.4 |
| C[C@@H]1CCCCO[C@@H](CN(C)S(C)(=O)=O)[C@H](C)CN([C@H](C)CO)C(=O)c2cc(NS(=O)(=O)c3ccccc3)ccc2O1 | -0.8 |
| Cc1noc(C)c1S(=O)(=O)N(C)C[C@@H]1Oc2ccc(NC(=O)Cn3cnnn3)cc2C(=O)N([C@@H](C)CO)C[C@@H]1C | -2.7 |
| C[C@H](CO)N1C[C@H](C)[C@@H](CN(C)C)Oc2ccc(NC(=O)Cn3cnnn3)cc2CC1=O | -4.1 |
| C[C@H](CO)N1C[C@H](C)[C@H](CN(C)C(=O)Nc2cccc3ccccc23)Oc2ccc(NC(=O)c3ccncc3)cc2CC1=O | -7.0 |
| C[C@H](CO)N1C[C@H](C)[C@H](CN(C)C(=O)NC2CCCCC2)Oc2ccc(NC(=O)Cc3cn(C)c4ccccc34)cc2C1=O | 2.7 |
| CC(C)NC(=O)N(C)C[C@@H]1OCCCC[C@@H](C)Oc2ccc(NC(=O)Nc3cccc4ccccc34)cc2C(=O)N([C@H](C)CO)C[C@@H]1C | 1.0 |
| C[C@H]1CCCCO[C@@H](CN(C)C(=O)Nc2ccc(F)cc2)[C@@H](C)CN([C@@H](C)CO)C(=O)c2cc(N(C)C)ccc2O1 | -1.2 |
| C[C@H]1CN([C@@H](C)CO)C(=O)c2cccc(NC(=O)Nc3ccc(C(F)(F)F)cc3)c2O[C@H]1CN(C)C(=O)Nc1ccc(F)cc1 | -2.6 |

Not all compounds are listed; rates above refer to the full screens.
